GLA inh pH 4.5 = alpha-galactosidase A (human) inhibition, pH 4.5. activity change, negative = inhibition, % at 105 µM. P06280. purified enzyme, 4-MU-alpha-Gal fluorescence, pH 4.5. 230,000 tested, under 10 active. AID 1467; inconclusive = small, poorly fitted or top-dose-only inhibition, or a rising curve; inactive = flat fitted curve, though single readings scatter; no compound was filed as active;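 note: 0% = full activity with enzyme and -100% = basal without enzyme; dose as in the result columns while the protocol names 77 µM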
Rango dissoc inh = inhibition of RanGTP-driven Rango-importin beta dissociation. Potency, µM (doses to about 46.1 µM), inactives show top-dose activity change, negative = inhibition. AID 540253. 340,000 compounds, 0.071% hits. O95149+P62826. Biochemical FRET Rango-importin beta, RanGTP-induced dissociation; active means falling FRET ratio curve, often poorly fitted, with flat reads before Ran was added; inconclusive means other falling curves, or compound fluorescence or quenching; inactive means flat or rising ratio curve;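 note: potency is the fitted concentration of half-maximal effect; % of control where 0% means no effect; nearly all actives have a fitted effect of over 45% in size; -100% = wells without RanGTP and RCC1; the record marks most hits as doubtful in a second field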
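Compounds sat 5 min at room temperature with 0.1 uM Rango biosensor plus 0.25 uM importin beta, then FRET pre-read. RanGTP-RCC1 (0.6 uM Ran, 2mM GTP, 0.2 uM RCC1) added for 45 min, and the CFP/YFP post-read measured blocked complex dissociation.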
miR-21 FLuc = miR-21 reporter, rising signal. HeLa miR-21 FLuc reporter, luciferase, 48 h. Potency, µM (series often up to 38.3 µM), inactives show top-dose reporter change, positive = more light. AID 2288. 340,000 tested, under 10 active; active = well fitted rising curve with a large enough effect; inconclusive = small, poorly fitted or top-dose-only effect; inactive = no such curve, though single readings can be large or run the other way;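 note: % of control where 0% means no effect; miR-21 action dims this reporter so a rising signal means less miR-21 action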
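Luminescence from a firefly luciferase reporter carrying a miR-21 binding site downstream, stably expressed under a CMV promoter in HeLa cells that make miR-21 endogenously, reports miRNA modulation after 48 h compound exposure up to approximately 40uM final.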
Rango-impB inh = prevents formation of the Rango-importin beta complex; Rango CFP/YFP FRET sensor + importin beta, 45 min; AID 540263; 340,000 compounds, 0.031% hits; Potency, µM (titrated, usually from 92.2 µM), for inactives: top-dose inhibition of complex formation; Q14974; active = rising FRET ratio curve, often small or poorly fitted; inconclusive = mostly compound fluorescence or quenching in the first reads; inactive = flat curves in all reads;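 note: potency is the fitted concentration of half-maximal effect; 0% = DMSO wells and 100% = buffer wells lacking importin beta; nearly all actives have a fitted effect of over 15% in size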
Target sequence (Q14974 whole entry, looked up): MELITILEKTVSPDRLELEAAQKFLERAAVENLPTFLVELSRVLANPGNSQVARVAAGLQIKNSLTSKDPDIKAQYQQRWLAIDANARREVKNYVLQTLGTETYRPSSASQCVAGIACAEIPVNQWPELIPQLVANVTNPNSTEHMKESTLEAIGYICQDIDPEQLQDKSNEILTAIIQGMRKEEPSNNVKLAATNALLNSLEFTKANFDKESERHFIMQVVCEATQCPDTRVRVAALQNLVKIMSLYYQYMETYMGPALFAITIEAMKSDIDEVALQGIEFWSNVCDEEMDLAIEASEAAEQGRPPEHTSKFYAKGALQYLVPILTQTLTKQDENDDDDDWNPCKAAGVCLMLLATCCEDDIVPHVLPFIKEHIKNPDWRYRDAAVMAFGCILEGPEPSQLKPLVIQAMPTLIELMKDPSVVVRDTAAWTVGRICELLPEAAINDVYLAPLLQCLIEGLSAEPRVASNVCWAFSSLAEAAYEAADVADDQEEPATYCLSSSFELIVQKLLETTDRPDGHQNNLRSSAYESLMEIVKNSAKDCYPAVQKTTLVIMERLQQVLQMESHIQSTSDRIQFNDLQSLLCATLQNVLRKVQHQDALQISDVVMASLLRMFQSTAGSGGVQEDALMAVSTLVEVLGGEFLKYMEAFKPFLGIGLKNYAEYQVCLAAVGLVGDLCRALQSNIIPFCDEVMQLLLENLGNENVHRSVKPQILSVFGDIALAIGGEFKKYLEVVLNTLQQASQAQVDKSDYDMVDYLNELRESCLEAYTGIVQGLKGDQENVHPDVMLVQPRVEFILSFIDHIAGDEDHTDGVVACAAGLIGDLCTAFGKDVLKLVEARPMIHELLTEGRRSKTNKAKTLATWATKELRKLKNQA
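FRET biosensor Rango (snurportin 1 IBB between N-terminal EYFP and C-terminal Cerulean), 50 nM in PBS/1 mM DTT/0.02% Tween-20/0.1% BSA, preincubated 5 min RT with compound; 0.125 microM importin beta added, 45 min RT, CFP/YFP FRET ratio read.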
Starred values were filed as active, the others as inactive; ? = inconclusive; · = no result given; & = joins results of further samples.

SMILES	GLA inh pH 4.5	Rango dissoc inh	miR-21 FLuc	Rango-impB inh
Cc1ccc(NC(=O)COC(=O)Cc2c[nH]c3ccccc23)cc1F	·	-9%	·	-0.7%
CS(=O)(=O)Nc1ccc2c(c1)C(=O)OC2	0	-16%	2%	-1.5%
Cc1cc(C)nc(NC(=O)c2ccc(C)o2)n1	·	-4%	1%	-2.1%
c1cncc(-c2ccnc3ncnn23)c1	4	0%	-9%	-4.4%
Cc1cc(C)nc(NS(=O)(=O)c2ccc(N)cc2)n1	-8&-2&-5&-7	0%	0%&-3%	1.2%
CC(C)N(Cc1nc(-c2ccccc2)no1)C(=O)C(Cl)(Cl)Cl	1	1%	-4%	-1.2%
Cc1cnc(NC(=O)c2cc3c(C)nn(Cc4ccccc4Cl)c3s2)s1	1	-23%	-17%	-3.1%
N#CCCn1c(-c2nonc2NC(=O)c2ccccc2Cl)nc2ccccc21	-1	6%	0%	3.4%
CCCOc1ccccc1N/C(=N/c1nc(C)cc(C)n1)NC(=O)COc1ccc(OC)cc1	1	-9%	-2%	-1.2%
Cc1ccc(C)c(Cn2nnc3c(=O)[nH]c(C(=O)NCc4ccco4)nc32)c1	3	0%	-18%	2.9%
CN(CCC#N)C(=O)COc1ccc(Br)cc1Cl	0	-8%	-6%	1.1%
COc1ccc(C(CNC(=O)c2cc(S(=O)(=O)Nc3cccc(C)c3)ccc2C)N2CCCC2)cc1 (stereo not given)	·	1%	·	1.7%
COc1ccc(OC)c2c1cc(C(=O)N[C@@H](C)C(=O)N[C@@H](C(=O)O)c1ccccc1)n2C	·	0%	-1%	4.0%
O=C(CN(C(=O)CCC(=O)Nc1nccs1)c1cccc(F)c1)NCc1ccc(F)cc1	·	-1%	-1%	0.5%
CN1C(=O)c2oc3ccc(Br)cc3c(=O)c2C1c1ccncc1 (stereo not given)	8	·	-3%	·
CC(=O)OCCNc1cc(Sc2nc3ccccc3[nH]2)c2nonc2c1[N+](=O)[O-]	-3	-16%	5%	-2.2%
CCOc1ccc2c(c1)ncn2Cc1ccccc1	8	0%	-25%	-2.7%
CCC(=O)Nc1sc(C(=O)Nc2ccccc2)c(C)c1C(=O)OC	-3	6%	-51%	7.0%
COC(=O)C(C)n1cnc2c(nnn2-c2cccc(OC)c2)c1=O (stereo not given)	·	2%	-15%	0.2%
Nc1cc(=O)[nH]c(SCc2ccc(Cl)cc2Cl)n1	·	20%	8%	4.9%
CCOc1ccc(CN(C)C(=O)CNC(=O)C2CCCCC2)cc1	·	6%	-5%	0.9%
O=C(O)Cn1cc(/C=C2\SC(=O)N(c3ccccc3)C2=O)c2ccccc21	1	-13%	-22%	0.5%
Cc1ccccc1C(=O)NC(=S)Nc1ccc(S(=O)(=O)N2CCN(C)CC2)cc1	-2	-11%	0%	0.8%
Cn1c(=O)c2c(nc(N3CCOCC3)n2CCSc2ncccn2)n(C)c1=O	6	0%	-2%	-0.8%
Cc1c(NC(=O)CSc2nccn2C)c(=O)n(-c2ccccc2)n1C	8	-5%	-2%	1.6%
COc1cccc(/C=N\NC(=O)C2C(=O)NCC2c2ccccc2)c1O (stereo not given)	8	?	16%	-4.0%
COCCCn1c(SCC(N)=O)nnc1-c1ccccc1	4	-6%	-2%	-3.3%
Cc1cc(C)n2nc(C(=O)Nc3ccc(S(=O)(=O)N4CCCC4)cc3)nc2n1	-12	2%	5%	1.1%
O=C1c2oc3ccccc3c(=O)c2C(c2cccc(O)c2)N1c1ccccn1 (stereo not given)	3	13%	1%	-2.9%
Cc1c(C(=O)NCC2CCCO2)oc2ccccc12 (stereo not given)	·	-3%	·	-1.1%
O=S(=O)(Cc1ccccc1)N1CCN(Cc2ccc(Br)cc2)CC1	·	1%	-33%	-0.1%
COc1ccc(S(=O)(=O)N2CCCCCC2)cc1C(=O)N(C)CCOc1ccccc1	·	3%	·	-4.4%
Cc1ccc(C(=O)N/C(=C\c2cn(S(=O)(=O)N(C)C)c3ccccc23)C(=O)N2CCCC2)cc1	·	12%	-3%	-1.7%
O=[N+]([O-])c1cccc(/C=N/NC2=NS(=O)(=O)c3ccccc32)c1	-21	20%	5%	0.1%
CCCC(=O)N=C1SC2CS(=O)(=O)CC2N1c1ccc(-c2nc3ccc(C)cc3s2)cc1 (stereo not given)	0	-1%	-64%	-3.5%
COc1ccc(C(=O)NCC(C)C)c(OC)c1	1	3%	-16%	-1.4%
COc1ccccc1/C=C1\SC(=S)N(CCC(=O)NC2=NCCS2)C1=O	-9	-18%	14%	-1.0%
CC(=O)N1c2ccccc2[C@@H](C)[C@@H]1C	·	5%	·	-0.7%
COc1ccc(C2(C)NC(=O)N(CC(=O)NCc3ccccc3F)C2=O)cc1 (stereo not given)	·	-17%	0%	-2.1%
CCN(CC)c1ccc(NC(=O)c2ccc3c(c2)OCO3)cc1	·	-11%	-33%	5.2%
COc1cc(CC(=O)Nc2ccc(S(=O)(=O)NC3=NCCCCC3)cc2)cc(OC)c1OC	3	18%	0%	-0.3%
CCc1cccc(CC)c1NC(=S)NCc1ccc2c(c1)OCO2	8	5%	-6%	0.0%
Cc1ccc(CC(CC(=O)O)C(=O)NCC23CC4CC(CC(C4)C2)C3)cc1 (stereo not given)	5	40%	1%	-0.1%
COCCn1c(SCC(=O)Nc2cc(C)cc(C)c2)nc2ccccc2c1=O	·	-11%	-3%	0.3%
COc1ccc(Oc2cc(C(F)(F)F)nc(N(C)C)n2)cc1	-6	10%	2%	-4.3%
O=C(Nc1cccc(Cl)c1N1CCOCC1)c1ccco1	·	1%	2%	-1.2%
COc1ccccc1CN1CCNC(=O)C1CC(=O)NCCOc1cccnc1 (stereo not given)	1	-4%	3%	-2.3%
CCCCNC(=O)C(C)N(CCN(C)C)C(=O)CCCCCN1C(=O)NC(c2ccc(Cl)cc2)C(C(=O)OCc2ccccc2)=C1C (stereo not given)	·	-5%	·	2.6%
O=C(CCCSc1nnnn1-c1ccccc1)c1ccc(F)cc1	-11	·	-7%	·
c1ccc(-c2nc(N3CCCCC3)nc3ccccc23)cc1	-19	?	-8%	?

The list goes on:
SMILES	GLA inh pH 4.5	Rango dissoc inh	miR-21 FLuc	Rango-impB inh
COc1ccccc1-n1cnnc1SCC(=O)NC1CCS(=O)(=O)C1 (stereo not given)	-15	0%	-5%	-3.6%
COCc1cc(=O)[nH]c(-c2ccccc2)n1	8	-4%	2%	0.1%
N#Cc1c(NC(=O)c2cccnc2)sc2c1CCC2	-10	-2%	6%	-0.2%
CCCCCc1cc(=O)[nH]c(=S)[nH]1	2	11%	1%	7.0%
Cc1cccc(NC(=O)CN2C(=O)N/C(=C\c3ccccc3OCc3ccc(C(=O)O)cc3)C2=O)c1	·	-3%	-2%	?
O=C(Oc1ccccc1)c1cccc(COC(=O)c2cnccn2)c1	-10	3%	-12%	-4.6%
COCCn1c(SCC(=O)Nc2ccccc2OC)nc2c(oc3ccccc32)c1=O	6	-11%	-10%	3.2%
Cc1ccc2nc(-c3cccc(Br)c3)cc(C(=O)NC3CC3)c2c1	·	2%	-6%	-0.6%
NC(=O)Nc1ccc(Cl)cc1	3	0%	4%	1.3%
C[C@]12c3[nH]c4ccc(Cl)cc4c3CCN1C(=O)[C@@H](CC(=O)NCCN1CCOCC1)C[C@@H]2C(=O)N1CCCCC1	·	5%	·	-0.3%
COc1cc(N2CCCC2)c(OC)cc1/C=C1/NC(=S)NC1=O	-16	?	-19%	?
CCOC(=O)C1CCN(c2cc3c(cc2NC(=O)c2ccc(OC)c(OC)c2)n(C)c(=O)n3C)CC1	·	-11%	1%&8%	0.6%
CNC[C@H]1Oc2ccc(NC(=O)Nc3ccc(OC)cc3)cc2C(=O)N([C@@H](C)CO)C[C@H]1C	·	0%	·	-0.7%
Cc1cccc2cc(CN(Cc3ccccc3)C(=O)N(C)C)c(=O)[nH]c12	1	35%	-5%	0.5%
O=C(CSc1nnc2ccccn12)N1CCc2ccccc21	3	1%	-42%	-1.2%
CCOc1ncccc1C(=O)OCc1cn2cc(Cl)ccc2n1	-7	2%	-2%	-1.3%
O=c1c2c(ncn2C2CCCC2)n(Cc2ccccc2)c(=O)n1CCOc1ccccc1	9	?	14%	0.2%
CCC1CCCCN1CCCNC(=O)Cn1cnc2sc(C)c(S(=O)(=O)N3CC(C)CC(C)C3)c2c1=O (stereo not given)	·	5%	8%	0.8%
O=C(c1ccc(Cl)cc1)c1coc2ccc(O)cc12	-11	-27%	-32%	2.4%
CCOc1cc(-c2c(C#N)c(N)nc3c2CCCC3C)ccc1O (stereo not given)	-3	-8%	3%	-2.6%
CC1C(=O)C(C)C(c2ccc(Br)cc2)NC1c1ccc(Br)cc1 (stereo not given)	·	0%	-4%	-3.3%
O=C(CN1CCN(S(=O)(=O)c2ccc(Cl)s2)CC1)NCc1ccc(Cl)cc1	-5	7%	1%	0.2%
COC(=O)/C=C1\S/C(=N/N=C/c2ccccc2)NC1=O	-8	-3%	-6%	-3.0%
CCOC(=O)N1CCN(C(=O)Nc2ccc(Cl)cc2)CC1	1	10%	-16%	-0.7%
CCOC(=O)/C=C1\SCC(=O)N1CC(O)CN1C(=O)CS/C1=C/C(=O)OCC (stereo not given)	·	12%	·	?
CC(C)CN(C(=O)COc1ccc(C(C)(C)C)cc1)C1CCS(=O)(=O)C1 (stereo not given)	·	1%	·	6.6%
CCNC(=O)CN1C(=O)NC2(CCCCCC2)C1=O	6	-12%	-3%	-2.1%
CC(C)OC(=O)C1=C(N)N2C(=O)CSC2=C(C(=O)OC(C)C)C1	?	?	-4%	1.7%
CCN(Cc1ccncc1)C(=O)c1ccccc1NS(=O)(=O)c1ccc(Br)cc1	-5	-8%	2%	-3.4%
Cc1cccc(N2C(=O)CN(Cc3sccc3C)C2=S)c1	-4	-9%	8%	-4.6%
Cc1ccc(C(=O)NNS(=O)(=O)c2ccc(F)cc2)cc1	·	0%	-9%	0.0%
COc1cc(NC(=O)c2ccccc2C)c(OC)cc1NC(=O)CN1CCOCC1	2	-1%	1%	1.2%
O=C(CCN1CCOCC1)NNC(=S)NC(=O)c1ccccc1	9	-6%	-6%	-1.6%
CCC(CC)C(=O)Nc1ccc(S(=O)(=O)Nc2nccs2)cc1	4	26%	-6%	-0.2%
COc1ccccc1N(C)S(=O)(=O)c1ccc(C(=O)Nc2ccc(C(N)=O)cc2)cc1	·	21%	·	-3.4%
Cc1ccc(NC(=O)c2ncn(CCCNCCCN(C)C)n2)cc1C	·	3%	·	1.9%
CC(C)(C)c1cc(NC(=O)Nc2ccccc2)no1	·	5%	-43%	3.1%
Cc1ccc(CN2C(=O)CNC2=S)cc1	3	-20%	6%	-0.6%
COC(=O)COc1cccc(NC(=O)c2cc(OC)cc(OC)c2)c1	-1	0%	0%	-1.8%
O=C(Nc1cccn(Cc2c(Cl)cccc2Cl)c1=O)c1ccc(Cl)cc1Cl	-8	-7%	0%	-1.2%
O=C(Nc1cccc(-c2csc(Nc3cccc(C(F)(F)F)c3)n2)c1)c1cc([N+](=O)[O-])cc(C(F)(F)F)c1	-2	-8%	1%	-0.1%
CCCCCCn1c(SCCOC)nc2c1c(=O)[nH]c(=O)n2C	7	?	-6%	-1.7%
Nc1nc(N)c2cc(Sc3ccc4ccccc4c3)ccc2n1	-3	-8%	?	1.1%
CC(=O)Oc1ccc(-c2ccc(C(=O)OCC(=O)N(C)CC(=O)Nc3ccccc3Cl)cc2)cc1	·	-3%	-11%	-0.5%
COc1ccc(N(CC(=O)Nc2ccc(S(=O)(=O)N3CCCC3)cc2)S(C)(=O)=O)cc1OC	-4	9%	-3%	-2.6%

Screens (PubChem BioAssay)

The list is partial. The share of hits here may be higher or lower than overall.
